GIV Gai3 FP – inhibitors of GIV GBA-motif binding to rat Galpha-i3 | percent of control (FP), % (no concentration beside the values) | 210,000 tested, 0.42% active | Galpha-i3/FITC-GIV peptide fluorescence polarization, 90 min; stronger effect = lower value; scaled: aluminum fluoride 0%, vehicle 100%;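 active means replicate mean at 85% of control or lower, very high polarization wells dropped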;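 further: wells of about 15 µL received 100 nL stock; the first replicate is given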
Target sequence (P08753 whole entry, looked up): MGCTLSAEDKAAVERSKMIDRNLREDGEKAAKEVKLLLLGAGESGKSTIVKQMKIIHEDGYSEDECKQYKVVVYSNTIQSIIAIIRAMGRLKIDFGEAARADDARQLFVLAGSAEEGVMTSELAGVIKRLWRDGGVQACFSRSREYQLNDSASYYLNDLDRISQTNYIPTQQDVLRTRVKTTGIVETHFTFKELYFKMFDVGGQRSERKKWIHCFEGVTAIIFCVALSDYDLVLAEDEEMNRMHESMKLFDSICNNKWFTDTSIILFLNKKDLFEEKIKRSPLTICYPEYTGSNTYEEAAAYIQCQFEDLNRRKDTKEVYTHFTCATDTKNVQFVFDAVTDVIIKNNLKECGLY
HCMV UL50-53 inh – cytomegalovirus nuclear egress complex inhibition; inhibition, % (concentration not given with the values); HTRF UL50-UL53 interaction, normalized percent inhibition; 190,000 tested, 0.15% active;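 active means both replicates at 50% or more, plus weaker picks with an unusually low signal ratio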;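 further: stock transfer was 100 nL into about 20 µL; 0% = negative control wells and 100% = wells with untagged competitor protein; inactives centre near -12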
Sa growth 42C – S. aureus growth inhibition | relative growth, % (test concentration not listed) | 170,000 tested, 0.53% active | S. aureus RN4220 growth, OD600, 20 h, 42 °C; stronger effect = lower value;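 active means growth at 42 °C up to 50% and 20 or more points under that at 30 °C, or under 10% at both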;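 further: 300 nL library stock went into each well; scaled to the means of positive and negative controls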
Sa growth 42C second temp – also measured in Sa growth 42C; calls as there; relative growth, %; measured here: growth at 30 °C;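 optical density after 20 h as mean of two plates; 100% = untreated growth and lower means inhibition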
* = called active by the depositor; · = not tested or not shown; & = joins results of further samples.

Values in the order: GIV Gai3 FP, HCMV UL50-53 inh, Sa growth 42C, Sa growth 42C second temp
CC(O)c1cc2ccccc2o1 (configuration not stated)
→ ·, -20, 98, 95
C1CCN(CCC2CCNCC2)CC1
→ 103, -7, 91, 86
Cc1ccc(-c2nc3ncccn3c2NC(=O)c2cccc(C(F)(F)F)c2)cc1
→ 99, ·, 97, 80
O=C1/C(=C/c2ccco2)CCc2ccccc21
→ 106, -37, 88, 94
Cn1c(=O)cc(OCC(=O)NCC2COc3ccccc3O2)c2ccccc21 (configuration not stated)
→ 96, ·, 86, 85
Cc1cccc(NC(=O)COC(=O)c2cc(C)oc2C)c1
→ ·, -20, 98, 99
CCc1ccc(-n2c(=O)c3ccc(C(=O)NCCc4ccccc4)cc3n(CC(N)=O)c2=O)cc1
→ 103, -17, 105, 88
CC(Oc1cc(C(F)(F)F)cc(C(F)(F)F)c1)C(=O)NC(N)=O (configuration not stated)
→ ·, -13, 117, 81
Cn1c(=N)n(CCO)c2ccccc21
→ 107, -4, 103, 84
O=c1ccc2ccccc2o1
→ ·, -16&0, 94, 88
CCCCN(Cc1nc2nc(C)cc(C)n2n1)C(=O)c1ccc(F)cc1
→ 107, -7, ·, ·
CCc1cc2c(=O)c(-c3nc4ccccc4s3)c(C)oc2c(CN(C)C)c1O
→ ·, 0, 81, 88
CCCc1cc(=O)[nH]c(SCc2nc(-c3ccc(OCC)cc3)no2)n1
→ 101, ·, 70, 85
CCOc1ccc(NC(=O)c2c3c(nc4ccccc24)CCCC3)cc1
→ ·, -11, 125, 92
CC1CCCC(C)N1CC(O)c1ccccc1 (configuration not stated)
→ ·, -3, 96, 99
O=C(NCCC1CCCC1)c1cccs1
→ 99, -13, 89, 84
Cc1cc(C)nc(SCC(=O)OCC(=O)Nc2sccc2C#N)n1
→ ·, 6, 94, 93
O=C(Nc1ccc(-c2nc3ccccc3s2)cc1)C1CCCO1 (configuration not stated)
→ ·, -6, 94, 77
COc1ccc(N2CC(NC(=O)/C=C\c3ccc4c(c3)OCO4)CC2=O)cc1OC (configuration not stated)
→ 99, ·, 120, 92
Fc1cnc(Nc2ccc3c(c2)OCO3)nc1Nc1ccc2c(c1)OCO2
→ ·, 4, 115, 72
Cc1cc(C)c(NC(=O)CCCN2C(=O)COc3ccc(C)cc32)c(C)c1
→ 106, 11, 111, 93
O=C(NCCS(=O)(=O)N1CCN(c2ccccc2F)CC1)C1CC(=O)N(c2ccccc2)C1 (configuration not stated)
→ 103, ·, 88, 91
O=c1[nH]c(SCc2nc(-c3ccc(Br)cc3)no2)nc2c(-c3ccccc3)c[nH]c12
→ 100, -26, ·, ·
COc1ccc(C2CC(=O)C3=C(C2)NC(C)=C(C(=O)OC2CCCC2)C3c2cccc(OC)c2OC)cc1OC (configuration not stated)
→ 99, -2, ·, ·
CC1CN(C(=O)CNc2ccccc2C(=O)NCc2ccccc2)CC(C)O1 (configuration not stated)
→ ·, -10, 91, 94
CC(NC(=O)c1ccccc1)c1nc2ccccc2n1CC(=O)NC(=O)NC(C)(C)C (configuration not stated)
→ ·, 1, 99, 89
O=C(O)C1C2CCCC(CC2)C1C(=O)O (configuration not stated)
→ 101, -2, 123, 110
CCOC(=O)C1=C(N)OC2=C(C(=O)CC(C)(C)C2)C1c1ccc(OC)c(OC)c1 (configuration not stated)
→ 99, -55, ·, ·
CCOC(=O)c1nnn2c1nc(N(Cc1ccccc1)Cc1ccccc1)c1ccccc12
→ 108, -42, 102, 81
Cc1cc(N2CCN(C)CC2)n2nc(C(F)(F)F)c(-c3ccc(Cl)cc3)c2n1
→ 107, 2, ·, ·
CCc1nc2nc(C)cc(Nc3ccc(F)c(Cl)c3)n2n1
→ 108, -8, 98, 91
CCC(C)NC(=O)Cn1c(=O)n(CCCC(=O)NCc2ccc(C)cc2)c(=O)c2ccccc21 (configuration not stated)
→ 103, -4, 106, 92
Cn1c(C(=O)OCC(=O)NC2CCCCC2)cc2sccc21
→ 101, 0, 102, 95
CC1Cc2ccccc2N1CC(=O)N1Cc2ccccc2C1 (configuration not stated)
→ ·, -19, 93, 93
Cc1nn(C(=O)C23CC4CC(CC(C4)C2)C3)c(C)c1Sc1ccccc1
→ 105, ·, 96, 93
Cc1ccccc1C(=O)Oc1c(Sc2ccccc2)c(C)nn1C(C)(C)C
→ 102, -14, 95, 80
NC(=O)C1C(=O)NC(c2ccccc2)=CC1c1ccc(Cl)cc1 (configuration not stated)
→ 105, ·, 99, 75
CC(CN1CCCCC1)OC(=O)c1ccc2c(c1)OCCO2 (configuration not stated)
→ 103, -17, 85, 88
Cc1ccc(C)c(CNS(=O)(=O)c2ccc3c(c2)C(C)(C)C(=O)N3C)c1
→ 105, ·, 112, 82
O=C(Cc1ccc(Cl)cc1)Nc1cccc(-c2nc3cc4ccccc4cc3[nH]2)c1
→ 104, ·, 123, 91
COc1cc(/C=N/N=C2/SC(CC(=O)O)C(=O)N2C)cc(OC)c1OC (configuration not stated)
→ 105, -12, 101, 95
CCN1CCSc2ccc(C(=O)NCc3cccc(Br)c3)cc21
→ 105, -9, 105, 96
NS(=O)(=O)c1ccc(NC(=O)C2Cc3ccccc3N2C(=O)c2ccccc2)cc1 (configuration not stated)
→ 107, ·, 77, 84
O=C(Nc1ccccc1)c1ncc[nH]1
→ 103, -8, 99, 89
CCOC(=O)c1c(-c2ccccc2)oc2ccc(NS(=O)(=O)c3ccc(CC)cc3)cc12
→ 99, ·, 99, 84
COC(=O)C1(C(=O)OC)CC=CC1
→ ·, -8, 120, 84
C/[N+]([O-])=C\c1coc2ccccc2c1=O
→ 100, -12, ·, ·
COc1ccc(S(=O)(=O)N2CCC(c3nc4ccccc4s3)CC2)cc1OC
→ 95, -5, 104, 91
Cc1ccc(CSC2=Nc3ccccc3C3=NC(CC(=O)NC4CCCCC4)C(=O)N23)cc1 (configuration not stated)
→ 105, ·, 76, 97
Cc1ccc(-n2c(C)nc3c(cnn3-c3ccccc3C)c2=O)cc1F
→ 100, 3, 100, 106
O=c1c2ccccc2[nH]c(=S)n1CC1CCCO1 (configuration not stated)
→ 101, -14, 100, 103
Cn1c(=O)c2c(nc(NCCc3ccccc3)n2Cc2cccc(Br)c2)n(C)c1=O
→ 108, -28, 108, 80
CNC(=O)c1c(O)c2cccc3c2n(c1=O)CCC3
→ ·, -2, 109, 90
CCOC(=O)c1c(N)sc2c1CCN(C(=O)OCC)C2
→ 107, 11, 101, 87
CCOc1ccc2nc(N3CCC(C(=O)NC)CC3)sc2c1
→ 105, 1, 111, 83
COC(=O)c1ccc(C(c2c(N)n(C)c(=O)n(C)c2=O)N2CCN(c3ccccc3)CC2)cc1 (configuration not stated)
→ ·, -8, 84, 86
S=C(NC1CCCCC1)N1CCCCCC1
→ 110, 8, 109, 102
O=C(NCc1ccccn1)c1nc[nH]c1C(=O)NCc1ccccn1
→ 103, 0, ·, ·
O=C(c1cccs1)N1CCCc2cc(NS(=O)(=O)c3ccc(F)cc3F)ccc21
→ 99, ·, 78, 64
Cc1cc(C)n(-c2ccc(C(=O)NC3CCCCC3)cc2)n1
→ ·, 2, 126, 97

Further entries follow:
Values in the order: GIV Gai3 FP, HCMV UL50-53 inh, Sa growth 42C, Sa growth 42C second temp
Cc1c(C)c(C)c2[nH]c(-c3ccc4c(c3)OCO4)nc2c1C
→ 104, 110, 91, 91
O=C(c1cc(-c2ccncc2)n[nH]1)N1CCCC(C(=O)N2CCN(c3ncccn3)CC2)C1 (configuration not stated)
→ 103, -26, ·, ·
CCOC(=O)c1ccc(-c2ccc(/C=c3/sc4nc5c(C)c(C)ccc5n4c3=O)o2)cc1
→ 79*, ·, 87, 90
CCOC(=O)c1sc2nc(CC(=O)OC)nc(NCc3cccnc3)c2c1C
→ 112, -7, ·, ·
O=C1CSC(c2ccccc2)N1Cc1ccccn1 (configuration not stated)
→ ·, -17, 101, 100
COC(=O)c1ccc(N2C(=O)Cc3c2nc(N)c2c(N)nc(N(C)C(C)C)c(C#N)c32)cc1
→ ·, 18, 101, 97
N#C/C(=C1/CCCCCN1)c1nc2ccccc2[nH]1
→ ·, 16, 70, 92
Cc1ccc(S(=O)(=O)NC(C)C(=O)O)cc1 (configuration not stated)
→ 104, ·, 107, 92
COc1cc(C=C2C(=O)NC(=S)NC2=O)cc(Cl)c1OCCOc1ccccc1
→ 91, -13, ·, ·
N#CC(C(=O)c1ccc(F)cc1)c1nc2ccccc2c(=O)[nH]1 (configuration not stated)
→ ·, -22, 58, 16
COc1ccc(C2=NN(C(=O)c3ccccc3)C(c3cccc([N+](=O)[O-])c3)C2)cc1 (configuration not stated)
→ 96, -17, ·, ·
N#Cc1nc(-c2cccc(Cl)c2)oc1NCCc1ccccc1
→ 105, 2, 116, 76
O=C(O)CC12CC3CC(C1)CC(C(=O)O)(C3)C2
→ ·, 8, 89, 92
CC(C)(C)c1nc(CN2CCOCC2)cc(CN2CCOCC2)c1O
→ 99, -34, 101, 79
COc1ccc(Cn2ccc3nc(C)c(C(=O)Nc4cc(OC)c(OC)c(OC)c4)cc3c2=O)cc1
→ 105, ·, 108, 95
CC(O)CNc1nc2ccccc2n1CC(O)COCc1ccco1 (configuration not stated)
→ ·, 12, 97, 98
COc1ccc(C(=O)/C(Cc2cc(OC)c(OC)c(OC)c2)=C(\C(=O)O)c2ccc3c(c2)OCO3)cc1
→ 94, 10, ·, ·
Cc1c(NC(=O)Cc2ccc(S(=O)(=O)N3CCCCC3)cc2)c(=O)n(-c2ccccc2)n1C
→ ·, -13, 87, 91
N#Cc1ccc(NC(=O)CNCC2CCCCC2)cc1
→ 104, 7, 119, 99
Cc1ccc(-c2nc3cccnc3n2CCCNC(=O)C(C)C)cc1
→ 122, -18, ·, ·
CC(C)(C)OC(=O)N1CCC(C(=O)OCC(=O)c2ccc3c(c2)CCC3)CC1
→ ·, -21, 111, 91
Cc1cccc(C(=O)Nc2ccc(S(=O)(=O)N3CCC(c4nc5ccccc5s4)CC3)cc2)c1
→ 97, -7, 99, 87
CNC(=O)CCc1nc2sc3c(c2c(=O)[nH]1)CCCCC3
→ 101, -32, ·, ·
COc1cc(C(=S)N2CCCC2)cc(Cl)c1O
→ 102, -16, 103, 93
CCOC(=O)Cn1c(=O)oc2cc(S(=O)(=O)N3CCN(c4ccc(Cl)cc4)CC3)ccc21
→ 99, -20, 101, 89
CCN(CC)c1ccc(NC(=O)CN2CCN(CC(=O)Nc3ccc(Cl)cc3)CC2)cc1
→ 105, ·, 98, 90
Cc1ccc(-c2noc(CCCCCN)n2)cc1
→ ·, 4, 104, 92
O=C(NC1Cc2ccccc2C1)c1ccc2nonc2c1
→ 102, 4, 108, 99
O=c1ccnc(SCc2ccc(CSc3nccc(=O)[nH]3)cc2)[nH]1
→ 105, -3&-5, 103&95, 107&97
CCN1CCN(C(c2cccc(F)c2)c2c(O)cc(C)n(CCOC)c2=O)CC1 (configuration not stated)
→ 100, ·, 99, 90
CCc1ccccc1OCCSc1ncccn1
→ 101, -9, 114, 101
COc1ccc(S(=O)(=O)c2cn(C)c3cc(N4CCCCCC4)c(F)cc3c2=O)cc1
→ 108, ·, 126, 93
CCOc1ccc(C2C(C(=O)OC)=C(C)NC3=C2C(=O)c2ccccc23)cc1OC (configuration not stated)
→ 104, -100, 115, 88
c1ccc(-c2nn3c(-c4ccccn4)nnc3s2)cc1
→ 107, -9, ·, ·
CC(N)C(=O)Nc1ccc2c(c1)Cc1ccccc1-2 (configuration not stated)
→ 107, -13, 94, 29
O=S(=O)(c1ccc(Cl)cc1)N1CN(Cc2cccs2)c2nc3ccccc3nc21
→ 102, -31, 109, 77
